High-throughput results as filed in PubChem BioAssay.
HSV replic up: increases HSV replication in cells; actives 0.005% (n = 220,000); HSV replication augmentation in cells, fold increase; maximum fold increase;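 active = peak rise of 1.5-fold or more in the series; tested in PC3 cells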;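 note: first round at 10 µM; read as green reporter fluorescence; hits show the peak of a series up to 25 µM; 1 = signal of infected wells without compound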
PKD1 kinase inh: PKD1 (human) kinase inhibition; Q15139; PKD1 kinase fluorescence polarization assay; inhibition, %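 (about 10 µM by stock and volumes)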; actives 0.056% (n = 200,000); AID 797;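 active = inhibition of 50% or more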;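 note: controls were vehicle for no effect and a reference inhibitor for full effect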
INS promoter inh: TRM-6 insulin promoter activity inhibition | TRM-6 cells (human fetal islet line), insulin promoter-eGFP reporter, imaging; reporter expression induced with tamoxifen | inhibition, % at 2 µM | actives 0.9% (n = 130,000);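 active = inhibition above the mean plus 3 SD, with well images judged a real hit on visual review, cut at about 60% in these data, passing the limit was not always enough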
RGS16-Gao HTS: modulates binding between human RGS16 and Galphao | binding response (% of control), % at 10 µM | O15492+P09471 | bead-based flow cytometry RGS16-Galphao binding, fluorescence; actives lie on both sides | actives 0.38% (n = 220,000);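 active = below 25% or above 175%, edge rows of some plates excepted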;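 note: Galphao activated by GDP with aluminum fluoride before binding; 100% = wells without compound and 0% = beads without RGS; some results beyond the cut were filed as inactive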
Target sequence (O15492 whole entry, looked up): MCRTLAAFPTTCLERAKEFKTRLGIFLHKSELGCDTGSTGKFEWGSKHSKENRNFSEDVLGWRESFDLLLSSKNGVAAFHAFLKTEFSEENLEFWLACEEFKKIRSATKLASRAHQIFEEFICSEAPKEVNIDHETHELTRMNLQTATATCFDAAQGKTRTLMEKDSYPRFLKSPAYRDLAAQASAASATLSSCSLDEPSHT
Target sequence (P09471 whole entry, looked up): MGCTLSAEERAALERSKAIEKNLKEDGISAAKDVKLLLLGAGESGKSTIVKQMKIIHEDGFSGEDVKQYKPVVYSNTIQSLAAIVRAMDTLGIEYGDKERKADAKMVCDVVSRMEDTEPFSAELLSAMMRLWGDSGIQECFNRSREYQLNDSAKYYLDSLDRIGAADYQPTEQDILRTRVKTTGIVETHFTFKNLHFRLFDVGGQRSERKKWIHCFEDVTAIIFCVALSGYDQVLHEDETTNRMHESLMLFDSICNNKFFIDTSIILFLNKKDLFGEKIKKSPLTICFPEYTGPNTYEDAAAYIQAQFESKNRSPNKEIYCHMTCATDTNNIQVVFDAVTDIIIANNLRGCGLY
GALR2 ag: agonists of human galanin receptor 2 (GALR2). O43603. GALR2-expressing cells, agonist activation read-out. activation, %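 (tested at 5 µM)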. actives 0.48% (n = 140,000);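 active = above mean plus 3 SD of all compounds, about 5% in these data, not always enough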;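 note: 0% = vehicle buffer wells and 100% = reference agonist at full effect; tested in CHO reporter cells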
Target sequence (O43603 whole entry, looked up): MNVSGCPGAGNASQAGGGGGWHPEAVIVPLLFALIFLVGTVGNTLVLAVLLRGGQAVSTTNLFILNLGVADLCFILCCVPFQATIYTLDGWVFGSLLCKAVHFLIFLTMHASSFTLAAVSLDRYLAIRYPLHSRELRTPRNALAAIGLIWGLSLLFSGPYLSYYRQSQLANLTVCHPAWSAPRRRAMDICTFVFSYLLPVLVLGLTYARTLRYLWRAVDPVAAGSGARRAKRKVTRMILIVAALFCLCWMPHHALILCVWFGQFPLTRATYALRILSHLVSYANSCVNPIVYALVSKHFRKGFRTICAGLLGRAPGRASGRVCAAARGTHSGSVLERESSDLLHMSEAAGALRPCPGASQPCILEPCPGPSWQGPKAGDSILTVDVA
INS promoter inh cell count: also measured in INS promoter inh; calls as there; normalized cell count, %; measured here: cell count, toxicity; reference of the scale not given here;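 cells exposed to compound for 48 h; stained nuclei by imaging scaled within each plate; lower means fewer cells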
HSV replic up primary fold: further read-out of HSV replic up, marked with its call; fold increase; compound at 10 µM; measured here: primary screen fold increase 10 uM; tested in PC3 cells;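 GFP signal in the first replicate; 1 = infected wells without compound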
Active calls of the source: *; i = inactive; . = not tested or not shown; [ ] = dose if it differs, or a comment. Rows are unselected, and some 1.3% of all compounds hit somewhere here.

Preview, 15 compounds:
SMILES	HSV replic up	HSV replic up primary fold	PKD1 kinase inh	INS promoter inh	INS promoter inh cell count	RGS16-Gao HTS	GALR2 ag
C/C(O)=C(/C=NCC(=O)O)C(=O)Nc1nccs1	i	0.97	-2	20	110	102	.
CC(=O)C1=C(S(=O)(=O)c2ccc(C)cc2)CS(=O)(=O)C1	i	0.91	-7	-18	72	69	.
COc1cccc(C(=O)Nc2cc(C)c3c(=O)oc4ccccc4c3n2)c1	i	0.98	.	.	.	100	.
O=C(CSc1nc(-c2ccccc2)nc2ccccc12)Nc1cccc(C(=O)O)c1	i	0.98	9	-6	97	95	.
COc1ccccc1NC(=S)N(Cc1cccnc1)Cc1ccccc1Cl	i	1	-3	.	.	98	.
CC(NO)C(C)(C)NO (stereo not given)	i	0.94	-9	.	.	99	-1.0
Cn1c(-c2ccc(F)cc2)cnc1NCc1ccc(C#N)cc1	i	0.76	-15	13	49	104	-2.7
O=C(/C(=C/c1ccccc1)c1ccccc1)N1CCCCC1	i	1	-12	-48	122	100	-2.3
COc1ccccc1N1CCN(C/C=C/c2ccc(N(C)C)cc2)CC1	i	1.1	-7	.	.	125	-1.6
COc1ccccc1NS(=O)(=O)c1ccc(OC)c(OC)c1	.	.	1	-80	89	98	0.7
Cc1ccc(C)c(NC(=O)Cn2nc([N+](=O)[O-])c(Br)c2C)c1	i	0.72	-10	0	110	60	-1.7
CCOc1ccc2nc(NC(=O)CN3CCC(n4nnc5cc(C(F)(F)F)ccc54)CC3)sc2c1	i	0.81	-12	77*	54*	103	-2.2
CCCn1c(SCC(=O)Nc2ccc(C)c(S(=O)(=O)N3CCOCC3)c2)n[nH]c1=O	i	0.91	19	.	.	99	0.6
Cc1cc(Nc2ccc(F)cc2C)n2nc(C)nc2n1	i	1.1	-6	.	.	103	-0.8
Cc1cccc(C)c1NC(=O)C1=C(O)c2sccc2N(C)S1(=O)=O	.	.	-7	50	123	100	.

The listing, from the start:
SMILES	HSV replic up	HSV replic up primary fold	PKD1 kinase inh	INS promoter inh	INS promoter inh cell count	RGS16-Gao HTS	GALR2 ag
C/C(O)=C(/C=NCC(=O)O)C(=O)Nc1nccs1	i	0.97	-2	20	110	102	.
CC(=O)C1=C(S(=O)(=O)c2ccc(C)cc2)CS(=O)(=O)C1	i	0.91	-7	-18	72	69	.
COc1cccc(C(=O)Nc2cc(C)c3c(=O)oc4ccccc4c3n2)c1	i	0.98	.	.	.	100	.
O=C(CSc1nc(-c2ccccc2)nc2ccccc12)Nc1cccc(C(=O)O)c1	i	0.98	9	-6	97	95	.
COc1ccccc1NC(=S)N(Cc1cccnc1)Cc1ccccc1Cl	i	1	-3	.	.	98	.
CC(NO)C(C)(C)NO (stereo not given)	i	0.94	-9	.	.	99	-1.0
Cn1c(-c2ccc(F)cc2)cnc1NCc1ccc(C#N)cc1	i	0.76	-15	13	49	104	-2.7
O=C(/C(=C/c1ccccc1)c1ccccc1)N1CCCCC1	i	1	-12	-48	122	100	-2.3
COc1ccccc1N1CCN(C/C=C/c2ccc(N(C)C)cc2)CC1	i	1.1	-7	.	.	125	-1.6
COc1ccccc1NS(=O)(=O)c1ccc(OC)c(OC)c1	.	.	1	-80	89	98	0.7
Cc1ccc(C)c(NC(=O)Cn2nc([N+](=O)[O-])c(Br)c2C)c1	i	0.72	-10	0	110	60	-1.7
CCOc1ccc2nc(NC(=O)CN3CCC(n4nnc5cc(C(F)(F)F)ccc54)CC3)sc2c1	i	0.81	-12	77*	54*	103	-2.2
CCCn1c(SCC(=O)Nc2ccc(C)c(S(=O)(=O)N3CCOCC3)c2)n[nH]c1=O	i	0.91	19	.	.	99	0.6
Cc1cc(Nc2ccc(F)cc2C)n2nc(C)nc2n1	i	1.1	-6	.	.	103	-0.8
Cc1cccc(C)c1NC(=O)C1=C(O)c2sccc2N(C)S1(=O)=O	.	.	-7	50	123	100	.

An excerpt from above in order of their number in RGS16-Gao HTS, highest first.
smiles,RGS16-Gao HTS
Cc1cccc(C)c1NC(=O)C1=C(O)c2sccc2N(C)S1(=O)=O,100
CC(NO)C(C)(C)NO (stereo not given),99
O=C(CSc1nc(-c2ccccc2)nc2ccccc12)Nc1cccc(C(=O)O)c1,95

The list continues:
SMILES	HSV replic up	HSV replic up primary fold	PKD1 kinase inh	INS promoter inh	INS promoter inh cell count	RGS16-Gao HTS	GALR2 ag
COc1ccc(OC)c(N2C(=O)[C@@H]3C(c4ccccc4Cl)=NO[C@@H]3C2=O)c1	i	0.99	-10	.	.	96	-3.1
COc1cccc(C2=NOC(C(=O)N3CCOCC3)C2)c1 (stereo not given)	i	0.9	-2	-9	87	102	-2.1
COc1cc2c(cc1/C=C1/NC(=O)N(CC(=O)Nc3ccccc3)C1=O)OCO2	i	1.1	-6	.	.	108	.
N#CC1(c2ccccc2)CCC(=NO)CC1 (stereo not given)	i	1	-6	-3	169	97	-2.5
Cc1cc(C)c(S(=O)(=O)N2CCOC2CNC(=O)C(=O)NCc2ccco2)c(C)c1 (stereo not given)	i	0.86	-4	24	100	.	-0.3
CCOC(=O)c1c(C)[nH]c(C(=O)CN2C(=O)NC(CC)(c3ccccc3)C2=O)c1C (stereo not given)	i	0.77	-10	.	.	66	0.8
CC(=O)NCN1CCN(CNC(C)=O)CC1	i	0.96	-5	.	.	104	11
Cc1c(NC(=O)c2cccc(S(=O)(=O)N3CCOCC3)c2)c(=O)n(-c2ccccc2)n1C	i	0.97	1	.	.	104	-1.0
CN(C1CCCC1)C1CCN(C(=O)CNC(=O)/C=C/c2ccccc2)CC1	i	1	-8	.	.	80	0.6
Cc1oc2c(c(=O)c1C)C(=O)CC(c1ccccc1)C2 (stereo not given)	i	0.91	-12	13	130	118	-2.2
CCC(C)(C(=O)NC1CCCCC1)N(C(=O)Cc1cccs1)c1ccccc1 (stereo not given)	i	1	-14	-56	90	89	-2.4
CC(C)c1nc(SCC(=O)N2CCc3ccccc32)n[nH]1	i	1.2	-1	.	.	103	.
CCOC(=O)c1ccc2c(c1)nc(C1CCN(S(=O)(=O)c3cccs3)CC1)n2CC	i	0.7	-3	.	.	101	-1.1
O=C(c1cccc(S(=O)(=O)N2CCOCC2)c1)N1CCCCCC1	i	1	-2	0	76	102	-4.9
O=C(C1=C[C@@H](C2CC2)C[C@@H](OCc2ccc(CO)cc2)O1)N1CCN(Cc2ccc3c(c2)OCO3)CC1	i	0.81	8	.	.	95	.
CCC(N=c1cc(-c2ccc(OC)c(OC)c2)oc2ccc(C)cc12)C(=O)O (stereo not given)	i	0.85	-11	29	144	98	-1.6
O=C(CSc1ncccn1)Nc1ccc2c(c1)CCC2	i	0.94	.	.	.	88	.
NC(=O)COC(=O)CNC(=O)c1cc(Cl)cc([N+](=O)[O-])c1	i	1	4	25	58	115	.
O=C(CCn1nc(-c2ccc(F)cc2)ccc1=O)NCc1ccccc1	i	0.95	.	.	.	97	.
Cc1cc(SCC(=O)N/N=C/c2ccc(O)c(O)c2)c(C)cc1Br	i	1	-4	0	55	84	-2.6
CCOC(=O)/C(C#N)=C/c1ccc(OCC(=O)Nc2ccc(OC)cc2)c(OC)c1	i	0.97	0	.	.	106	-1.4
Cc1ccc(C)n1-c1ccc2c(c1)COC2=O	i	1.1	-9	14	170	99	-2.8
Cn1nnnc1SCC(=O)N1CCN(c2ccc(Cl)cc2)CC1	.	.	-3	31	74	76	-1.6
Cc1nn(C)c(C)c1CN(C)S(=O)(=O)c1ccc(F)cc1	i	0.97	-3	12	108	106	-1.3
CCOC(=O)c1ccc(NS(C)(=O)=O)cc1	i	0.94	-2	-57	142	108	-0.1
O=C1c2cccc3cccc(c23)C(=O)N1CCN1CCN(CC(O)COc2ccc3ccccc3c2)CC1 (stereo not given)	i	0.82	-3	-67	121	100	1.4
CC(=O)c1sc(C(C)(C)C)cc1NC(=O)c1ccccc1C(=O)O	i	0.96	.	.	.	58	.
NS(=O)(=O)c1ccc(CNC(=S)NCc2ccc(Cl)cc2)cc1	i	0.9	-5	-59	100	90	1.5
COc1cccc(NC(=O)CNC(C)CCC(C)C)c1 (stereo not given)	i	0.9	3	.	.	99	0.4
Cc1ccc(O)c(C(=O)c2cnc3c(c2)COc2ccc(C)cc2-3)c1	i	1	-6	38	104	98	-0.9
COC(=O)c1ccccc1NC(=O)c1ccc(-c2ccccc2F)o1	i	0.68	-6	-7	86	97	-2.4
Cc1ccc(-n2c(Cn3c(C)nc4ccccc43)n[nH]c2=S)cc1	i	1	-2	6	83	-1.4*	-0.5
CNC(=O)c1nn(-c2ccccc2)ccc1=O	i	0.81	-9	23	112	103	-1.9
O=C(COc1ccccc1)NNc1c2ccccc2nc2ccccc12	i	0.8	-8	-23	63	101	-1.0
Cc1cc(C)cc(OCC(=O)N(Cc2cccs2)C2CCS(=O)(=O)C2)c1 (stereo not given)	i	0.68	2	-85	71	97	-1.8
O/N=C/c1ccc(-c2cc(Cl)ccc2Cl)o1	i	0.94	-7	26	132	108	2.7
Cc1ccc(CNC(=O)c2cn(C3CCCC3)c(=O)c3c2c2ccccc2n3C)o1	.	.	0	-45	181	91	-2.3
CCOC(=O)c1c(C)n(C)c2ccc(OCC(O)CN3CCC(C)CC3)cc12 (stereo not given)	i	0.89	0	.	.	101	-2.6
COc1cc(OC)c(Cl)cc1N	i	0.92	15	11	98	109	-4.2
Cc1cccc(OCC(=O)NNC(=O)C2CCCCC2C(=O)O)c1 (stereo not given)	i	1	3	17	130	103	-1.4
CCOC(=O)C1=C(O)C(=O)N(c2ccccc2)C1c1cccc([N+](=O)[O-])c1 (stereo not given)	i	1	.	.	.	96	.
Cc1ccc(Nc2c([N+](=O)[O-])c(=O)n(C)c3ccccc23)cc1C	i	0.91	4	-15	134	111	-1.2
CCOC(=O)c1nn(C23CC4CC(CC(C4)C2)C3)c2c1C(=O)N(c1ccc(C)cc1)C2=O	i	0.93	2	.	.	102	-0.6
O=C(CN1CCN(c2ccccc2O)CC1)NC(c1ccccc1)c1ccccc1	i	1.1	-7	.	.	244*[activator]	-0.1
Cc1ccnc(NS(=O)(=O)c2ccc(Cl)nc2)c1	i	0.94	.	.	.	98	.
NC(=O)c1ccsc1NC(=O)COC(=O)Cc1cccc2ccccc12	i	0.96	-3	11	65	104	-3.2
Cc1nc(CSc2nsc(/C=C/N(C)C)c2C#N)cs1	.	.	-4	8	53	103	.
Cc1ccc(Sc2nc(C)cc(C)c2S(C)(=O)=O)cc1	i	0.79	-8	-32	73	98	-1.2
O=C(NNC(=O)c1c(F)cccc1F)c1ccccc1-n1cccc1	i	1	2	.	.	97	.
CC12CCC(=O)N1C(C(=O)OCC(=O)Nc1ccc(Cl)c(Cl)c1)CS2 (stereo not given)	i	0.93	1	36	134	105	.
O=C(Nc1ccccc1)N1CCSCC1	i	0.98	1	.	.	107	-1.1
Cc1ccc(C)c(NS(=O)(=O)c2cc(Br)cnc2N)c1	i	1	7	.	.	84	-2.6
CCOc1ccc(CCNC(=O)c2cc3sc(Cl)cc3n2C)cc1OCC	i	1	-14	-12	154	107	-3.2
O=C(CSc1nccc(=O)[nH]1)Nc1ccc(S(=O)(=O)N2CCOCC2)cc1	i	0.87	-4	13	144	101	-2.0
CC(NC(=O)C1(C)CC1(Br)Br)C(C)(C)C (stereo not given)	i	1.1	-6	30	90	99	-3.4
OCCC1CN(Cc2ccc3nsnc3c2)CCN1C1CCCCC1 (stereo not given)	i	0.96	-5	.	.	105	.
Cc1cc(C)cc(N2C(=O)CC(Sc3ccccc3C(=O)O)C2=O)c1 (stereo not given)	i	0.94	.	.	.	97	.
Cc1ccnc(SCc2cc(=O)c(OC(=O)c3cc([N+](=O)[O-])ccc3Cl)co2)n1	i	1	-6	-11	86	104	-0.9
Cc1ccc2nc(NC(=O)c3ccc(S(=O)(=O)N4CCCc5ccccc54)cc3)sc2c1	i	1	-10	1	55	72	-1.1
O=C(CC(c1ccccc1)c1ccccc1O)NCCN1CCOCC1 (stereo not given)	i	0.95	2	12	95	97	-1.6

Next section
SMILES	HSV replic up	HSV replic up primary fold	PKD1 kinase inh	INS promoter inh	INS promoter inh cell count	RGS16-Gao HTS	GALR2 ag
S=C(N/N=C/c1ccccc1)N1CCOCC1	i	0.88	6	17	92	63	-0.7
CO/N=C/c1ccc(N2CCN(C(=O)c3ccc(C)cc3)CC2)c([N+](=O)[O-])c1	i	1	-2	.	.	102	-1.6
CCOC(=O)c1ccc(S(=O)(=O)NCC(C)(C)N2CCOCC2)cc1	i	0.87	-5	-21	123	100	.
Cc1ccc(CN2CCN(C/C=C/c3ccc(F)cc3)CC2CCO)o1 (stereo not given)	i	0.97	-6	.	.	136	.
Cc1ccc(C(=O)C[n+]2cccc(C(N)=O)c2)cc1	i	0.97	.	.	.	102	.
CCC(C)(C)NC(=O)CCCSc1nc2ccccc2[nH]1	i	0.85	.	.	.	104	.
CNC(=O)CSc1cnc2ccccc2n1	i	0.99	-1	27	91	105	.
